# Rce1 inhib: yeast Ras-converting enzyme inhibition; AID 2563; Q03530; yeast membranes, quenched prenylated peptide cleavage fluorescence; calls only; 290,000 tested, 0.27% active;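 active means fall in fluorescence gain of 50% or more versus controls, with final raw signal at or below 3038400; inconclusive means same 50% fall but final raw signal above 3038400; inactive means fall in fluorescence gain under 50%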;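 further: plate controls were neutral control wells for no effect and wells lacking membranes for full effect; tested at 10 µM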
# Env fusion inh: blocks HIV Env-driven cell-cell fusion. HeLa-JRFL Env/CEM21 cell fusion, luciferase. inhibition, % at 12.3 µM. 360,000 tested, 1.1% active. AID 651610;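 active means mean replicate inhibition score of at least 50 and every replicate individually at or above 50; inconclusive means only one of the two criteria met; inactive means mean below 50 and not all replicates reaching 50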;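 further: 0% = plate neutral controls and 100% = maraviroc near 300 nM; one replicate is shown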
# PABP FP inh: PABP-poly(A) binding inhibition. P11940. PABP-poly(A) RNA binding, fluorescence polarization. inhibition, % at 35 µM. 290,000 tested, 1% active;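 active means 50% or more with normal probe brightness, or confirmed in later tests; inconclusive means above 50% with abnormal brightness, or retests that disagree; inactive means below 50% or failed in later tests; about a fifth of its hits are not listed in these tables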;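 further: calls also rest on retests at 20 µM and on dose response follow-up; controls were probe without protein and protein plus probe with vehicle; some compounds called inactive have numbers as strong as hits; many hits fall short of the cut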
# Target sequence (P11940 whole entry, looked up): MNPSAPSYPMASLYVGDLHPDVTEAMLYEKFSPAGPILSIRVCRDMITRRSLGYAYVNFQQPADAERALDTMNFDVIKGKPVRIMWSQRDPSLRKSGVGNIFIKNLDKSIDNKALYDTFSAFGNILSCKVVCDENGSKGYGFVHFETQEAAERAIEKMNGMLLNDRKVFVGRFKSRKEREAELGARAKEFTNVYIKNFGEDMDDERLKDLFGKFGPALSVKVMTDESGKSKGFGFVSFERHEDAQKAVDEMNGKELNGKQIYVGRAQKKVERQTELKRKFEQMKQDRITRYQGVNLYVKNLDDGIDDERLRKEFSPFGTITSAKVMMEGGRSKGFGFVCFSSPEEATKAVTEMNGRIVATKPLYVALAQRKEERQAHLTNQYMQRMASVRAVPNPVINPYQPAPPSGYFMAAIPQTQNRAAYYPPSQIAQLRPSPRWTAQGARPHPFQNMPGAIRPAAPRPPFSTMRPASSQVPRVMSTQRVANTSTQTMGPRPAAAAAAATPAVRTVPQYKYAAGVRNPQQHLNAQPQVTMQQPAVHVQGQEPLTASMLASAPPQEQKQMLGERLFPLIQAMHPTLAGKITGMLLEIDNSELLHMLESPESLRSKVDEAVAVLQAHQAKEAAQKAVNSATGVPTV
# MT1-MMP act inh: blocks activation of human MT1-MMP; 360,000 tested, 0.061% active; P50281; HT1080 RFP-PRO-GFP cells, GFP/RFP ratio fluorescence, overnight; percent of plate control window, DMSO zero; GFP/RFP ratio change, % at 20 µM;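 active means GFP/RFP ratio change of at least 30% with cell ATP level not reduced by more than half and red fluorescence within 50% of control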; further: strong numbers were not always called active
#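 Assay system: HT1080 cells carrying an RFP-PRO-GFP reporter | Dosing: Single dose of 20 µM compound, 1% DMSO final | Incubation: Cells overnight before dosing, compound overnight, 37 °C, 5% CO2 | Evaluation: GFP/RFP fluorescence ratio | Control set: DMSO and RFP-L50D-GFP cell wells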
# UUG fidelity: modulators of start codon recognition fidelity in yeast. activity score, % at 18.7 µM. S. cerevisiae UUG-firefly luciferase reporter, luminescence/redox ratio. 350,000 tested, 0.13% active;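 active means replicate mean at a twofold rise or more, about +100% in these data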;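 further: firefly luciferase made from a UUG start codon reports start codon fidelity; reporter light over untreated wells divided by growth signal over untreated wells; some hits fall short of that in this replicate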
# CSC inhib: blocks cancer stem cells; inhibition, % at 7.5 µM; 300,000 tested, 1.1% active; cancer stem cell-like cells viability, luminescence;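 active means mean at 75% or more and at least half the replicates too; inconclusive means mean and replicates disagree; tested in HMLE shEcad cells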;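 further: 0% = median of negative and 100% = median of positive control wells; the first replicate is given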
# eIF4H FP inh: inhibitors of RNA binding by human eIF4H. AID 2012. eIF4H fluorescence polarization binding assay. inhibition, % at 35 µM. 290,000 tested, 0.94% active;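 active means 50% or more with normal probe brightness, or confirmed in later tests; inconclusive means above 50% with abnormal brightness, or retests that disagree; inactive means below 50% or failed in later tests; about a fifth of its hits are not listed in these tables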;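 further: calls also rest on retests at 20 µM and on dose response follow-up; 0% = protein and probe with vehicle and 100% = probe without protein; strong numbers were not always called active; many hits fall short of the cut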
# MT1-MMP act inh RFP: also measured in MT1-MMP act inh; calls as there; RFP signal change, %; measured here: RFP expression control read;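 0 = vehicle wells; hits needed this value within 50% of zero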
# An asterisk follows results filed as active; i = inactive; ? = inconclusive; · = no result given.
# A first look, 11 compounds:
# Assay codes: A = Rce1 inhib; B = Env fusion inh; C = PABP FP inh; D = MT1-MMP act inh; E = MT1-MMP act inh RFP; F = UUG fidelity; G = CSC inhib; H = eIF4H FP inh
1. CCN(CC)C(=O)C1=C(C)N(CCC2=CCCCC2)C(=O)C(CC(=O)NCCCCc2ccccc2)C1 (stereo unspecified)
  A = ·; B = 8.5; C = ·; D = -1.3; E = -6.4; F = 18.2; G = ·; H = ·

2. O=S(=O)(c1cccc2ccccc12)N1CCCCC1
  A = i; B = 8.5; C = 0.6; D = -3.3; E = -3.4; F = -4.5; G = ·; H = -4.4

3. CC(=O)NCC(=O)OCC(=O)c1ccc(C)cc1
  A = i; B = ·; C = 9.9; D = 7.6; E = 2.2; F = ·; G = -10.8; H = 0.8

4. Cc1cc(=O)oc2cc(OCC(=O)N3CCN(C(=O)c4ccco4)CC3)ccc12
  A = i; B = -15.7; C = -0.6; D = -0.2; E = 0.5; F = ·; G = -9.9; H = -8.1

5. CCN1CCN(CC(=O)Nc2cc(C)on2)CC1
  A = i; B = -15.3; C = 6.3; D = 2.9; E = -5.4; F = ·; G = -5.0; H = -1.1

6. Cc1noc(C)c1/C=N/Nc1ccccn1
  A = i; B = -38.2; C = -16.4; D = -0.9; E = 1.9; F = ·; G = -10.7; H = -1.6

7. O=C(O)c1ccc(N/N=C/c2ccc(-c3cccc(Cl)c3)o2)cc1
  A = i; B = -131.6; C = 23.6; D = -2.6; E = -3.8; F = -15.5; G = 9.7; H = 22.8

8. COc1cc(OC)c(OC)cc1CNC(=O)c1cc(=O)[nH]c2ccccc12
  A = i; B = -4.4; C = -0.4; D = 5.8; E = 5.8; F = 19.0; G = -8.3; H = -7.5

9. O=C1CC(=O)C(n2cncn2)C(c2c(F)cccc2Cl)C1 (stereo unspecified)
  A = i; B = -100.3; C = -3.3; D = -2.1; E = 1.7; F = -8.8; G = ·; H = -7.3

10. COc1ccc(S(=O)(=O)NCC(=O)N(CC(=O)NCC2CCCO2)c2c(C)cccc2C)cc1 (stereo unspecified)
  A = i; B = ·; C = 3.6; D = 2.4; E = 0.5; F = -14.8; G = 8.9; H = -4.5

11. COC(=O)[C@H](Cc1c[nH]c2ccccc12)NC(=O)Nc1ccccc1OC
  A = i; B = 2.4; C = -8.9; D = 0.3; E = 3.5; F = ·; G = -8.8; H = 3.4

# Results, previewed entries included:
# Assay codes: A = Rce1 inhib; B = Env fusion inh; C = PABP FP inh; D = MT1-MMP act inh; E = MT1-MMP act inh RFP; F = UUG fidelity; G = CSC inhib; H = eIF4H FP inh
1. CCN(CC)C(=O)C1=C(C)N(CCC2=CCCCC2)C(=O)C(CC(=O)NCCCCc2ccccc2)C1 (stereo unspecified)
  A = ·; B = 8.5; C = ·; D = -1.3; E = -6.4; F = 18.2; G = ·; H = ·

2. O=S(=O)(c1cccc2ccccc12)N1CCCCC1
  A = i; B = 8.5; C = 0.6; D = -3.3; E = -3.4; F = -4.5; G = ·; H = -4.4

3. CC(=O)NCC(=O)OCC(=O)c1ccc(C)cc1
  A = i; B = ·; C = 9.9; D = 7.6; E = 2.2; F = ·; G = -10.8; H = 0.8

4. Cc1cc(=O)oc2cc(OCC(=O)N3CCN(C(=O)c4ccco4)CC3)ccc12
  A = i; B = -15.7; C = -0.6; D = -0.2; E = 0.5; F = ·; G = -9.9; H = -8.1

5. CCN1CCN(CC(=O)Nc2cc(C)on2)CC1
  A = i; B = -15.3; C = 6.3; D = 2.9; E = -5.4; F = ·; G = -5.0; H = -1.1

6. Cc1noc(C)c1/C=N/Nc1ccccn1
  A = i; B = -38.2; C = -16.4; D = -0.9; E = 1.9; F = ·; G = -10.7; H = -1.6

7. O=C(O)c1ccc(N/N=C/c2ccc(-c3cccc(Cl)c3)o2)cc1
  A = i; B = -131.6; C = 23.6; D = -2.6; E = -3.8; F = -15.5; G = 9.7; H = 22.8

8. COc1cc(OC)c(OC)cc1CNC(=O)c1cc(=O)[nH]c2ccccc12
  A = i; B = -4.4; C = -0.4; D = 5.8; E = 5.8; F = 19.0; G = -8.3; H = -7.5

9. O=C1CC(=O)C(n2cncn2)C(c2c(F)cccc2Cl)C1 (stereo unspecified)
  A = i; B = -100.3; C = -3.3; D = -2.1; E = 1.7; F = -8.8; G = ·; H = -7.3

10. COc1ccc(S(=O)(=O)NCC(=O)N(CC(=O)NCC2CCCO2)c2c(C)cccc2C)cc1 (stereo unspecified)
  A = i; B = ·; C = 3.6; D = 2.4; E = 0.5; F = -14.8; G = 8.9; H = -4.5

11. COC(=O)[C@H](Cc1c[nH]c2ccccc12)NC(=O)Nc1ccccc1OC
  A = i; B = 2.4; C = -8.9; D = 0.3; E = 3.5; F = ·; G = -8.8; H = 3.4

12. COc1ccc(C2=NN(c3ccccc3)C(=O)/C2=C\c2ccc(O)c(OC)c2)cc1
  A = i; B = -11.0; C = -8.2; D = 6.7; E = -3.6; F = ·; G = -4.1; H = -10.6

13. O=C(O)c1cccc(NC(=O)c2ccc3c(c2)C(=O)N(c2ccccc2)C3=O)c1
  A = i; B = -6.8; C = -0.6; D = 2.6; E = 3.4; F = -28.7; G = -7.6; H = -11.1

14. CCN(CC)S(=O)(=O)c1ccc(N2CCCC2)c(NC(=O)CSCc2c(C)noc2C)c1
  A = ·; B = -2.5; C = ·; D = -4.4; E = 1.7; F = -2.4; G = ·; H = ·

15. CN(C)CCn1c(=O)n(C2CCCCC2)c(=O)c2c3c(sc21)CCCCC3
  A = i; B = 13.6; C = ·; D = -20.4; E = -13.5; F = -15.4; G = 34.0; H = ·

16. NS(=O)(=O)c1ccc(CCNC(=O)C2CCN(S(=O)(=O)c3ccc(Br)s3)CC2)cc1
  A = i; B = -2.4; C = -4.2; D = 1.2; E = -0.1; F = ·; G = -0.5; H = -6.0

17. Cc1nn(C)c(C)c1Sc1ccccc1N
  A = i; B = -6.4; C = -2.3; D = 1.2; E = -3.4; F = ·; G = 18.0; H = -1.4

18. CCOc1ccc(CSc2nc(C)cc(COC)c2C#N)cc1OCC
  A = i; B = 14.9; C = -0.3; D = -2.0; E = -6.8; F = -8.7; G = -3.8; H = -12.6

19. COc1ccc(/C=C2\SC(=S)N(CCC(=O)NC3=NCCS3)C2=O)cc1OC
  A = i; B = 13.6; C = -6.0; D = -9.5; E = 7.3; F = -5.0; G = -5.6; H = 1.5

20. CCOc1cc(CNC(=O)CN2C(=O)c3ccccc3S2(=O)=O)ccc1OC
  A = i; B = -31.1; C = 5.8; D = 8.7; E = 8.0; F = -0.3; G = -5.5; H = 6.3

21. S=C(NCCN1CCOCC1)Nc1cccc(Cl)c1
  A = i; B = ·; C = -2.0; D = -9.2; E = 3.6; F = -17.8; G = 3.2; H = -8.3

22. CC(=O)c1ccc(N2CCN(C(C)C(=O)NC3CCCc4ccccc43)CC2)cc1 (stereo unspecified)
  A = i; B = 13.6; C = 8.4; D = -8.6; E = -6.5; F = ·; G = -21.1; H = 1.1

23. CC(O)Cc1nsc(NC(=O)c2ccc(Br)o2)n1 (stereo unspecified)
  A = i; B = 16.9; C = 0.9; D = 2.9; E = 3.3; F = -7.0; G = -5.2; H = -3.0

24. COc1cccc2cc(C(C)N(CCCN3CCOCC3)C(=O)Nc3ccc(Cl)cc3)oc12 (stereo unspecified)
  A = i; B = ·; C = -4.0; D = -0.3; E = -0.5; F = -8.6; G = 12.2; H = -7.1

25. c1coc(CN2CCN(C(c3cccs3)c3nnnn3C3CCCC3)CC2)c1 (stereo unspecified)
  A = i; B = ·; C = 13.2; D = 1.3; E = -3.2; F = -10.9; G = -14.2; H = -0.5

26. CCNC(=O)C1(C)CCCN(C(=O)C2(c3ccc(Cl)cc3)CCCC2)C1 (stereo unspecified)
  A = ·; B = 13.7; C = ·; D = 1.5; E = 1.2; F = -9.9; G = ·; H = ·

27. COc1ccccc1NC(=O)CCS(=O)(=O)c1ccc2c(c1)oc(=O)n2C
  A = i; B = -5.5; C = 1.2; D = 0.2; E = 3.5; F = -7.0; G = -0.2; H = 7.1

28. Cc1oc2cc(Br)c(O)c(Br)c2c1C(=O)c1ccccc1
  A = i; B = 30.3; C = 5.3; D = -1.2; E = 1.0; F = -4.7; G = 16.0; H = -6.9

29. O=C(CN(Cc1ccco1)C(=O)CNS(=O)(=O)c1ccccc1)NC1CCCCC1
  A = i; B = ·; C = -5.7; D = 0.0; E = -0.2; F = ·; G = ·; H = -6.2

30. O=C(Cc1nc2ccccc2[nH]c1=O)c1ccccc1
  A = ·; B = -98.5; C = -10.5; D = -49.9; E = 5.7; F = ·; G = ·; H = ?

31. O=C(Nc1c(-c2cccs2)nc2ccccn12)c1ccccc1F
  A = i; B = -2.8; C = 4.3; D = -2.8; E = -1.6; F = ·; G = -11.5; H = -12.9

32. Cc1ccc(-n2nnc3c(=O)n(CC(=O)N4CCCC4)cnc32)cc1
  A = ·; B = ·; C = 3.0; D = 11.8; E = 5.9; F = ·; G = -9.0; H = -10.0

33. CCOC(=O)c1c(NC(=O)c2cccnc2Cl)sc(C(=O)N(C)C)c1C
  A = i; B = 0.6; C = -4.0; D = 1.7; E = 8.7; F = ·; G = 7.5; H = -0.7

34. CCCc1nc2c(C)cc(Br)cn2c1Cc1cccc(F)c1
  A = ·; B = 5.7; C = ·; D = -0.3; E = 2.6; F = 5.3; G = ·; H = ·

35. Cc1ccc(C)c2c1[nH]c1ccccc12
  A = i; B = -38.2; C = -5.8; D = 1.6; E = 3.0; F = -21.5; G = 0.0; H = 7.2

# Assay outcomes: PubChem BioAssay, several laboratories
